inhibitors of VEEV: inhibitors of VEEV TC-83 cytopathic effect, confirmation, Vero cells (AID 588727) | Vero cells, VEEV TC-83 cytopathic effect inhibition; higher % means a stronger effect | inhibition, % at 20 µM; hits with a dose series show IC50 in µM | hit rate 0.13% among 350,000; in the data active = a potency from the dose series; inconclusive = inhibition mostly from about 14% at the one dose, without a potency; inactive = the rest, 99 in 100 with inhibition below about 12%; also: strong numbers were not always called active
M. tuberculosis: growth inhibition of non-replicating M. tuberculosis (AID 488890) | Mycobacterium tuberculosis non-replicating, growth inhibition; higher % means a stronger effect | inhibition, % at 25 µM; hits with a dose series show IC50 in µM | hit rate 0.39% among 320,000; in the data active = a potency from the dose series; inconclusive = inhibition mostly from about 82% at the one dose, without a potency; inactive = the rest, 99 in 100 with inhibition below about 76%;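 also: plate controls were DMSO cells for no effect and high antibiotic wells for full effect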
M. tuberculosis HTS: M. tuberculosis growth inhibition, HTS (AID 449762). M. tuberculosis H37Rv growth inhibition, 7H9 media; higher % means a stronger effect. inhibition, % at 25 µM; hits with a dose series show IC50 in µM. hit rate 0.59% among 330,000; in the data active = a potency from the dose series; inconclusive = inhibition above about 70% without an active follow-up result;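 also: bacterial growth assessed after seven days of incubation; strong numbers were not always called active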
inhibitors of VEEV 10K pilot screen: second read-out of inhibitors of VEEV, no call of its own (marks repeat the call); inhibition, %; measured here: 10K pilot screen inhibition
The depositor's hits bear a star; i = inactive; ? = inconclusive; · = no result given; & = joins results of further samples.

SMILES | inhibitors of VEEV | M. tuberculosis | M. tuberculosis HTS | others
CN1CCC[C@H]1c1cccnc1 | 0.1%&2.1% | -1%&-7% | -2%&-1%
CCn1cc(C(=O)N[C@H](C(=O)O)C(C)C)c(=O)c2cc3c(cc21)OCO3 | 0.2% | -6% | -1%
O=C(N/N=C/c1c[nH]c2ccccc12)c1ccc(Cl)cc1 | 0.5% | -1% | 1%
CCC1(c2ccccc2)C(=O)NCNC1=O | 0.2% | -10% | -1%
Cc1ccccc1Nc1c([N+](=O)[O-])ccc2c1=NC1(CCCCC1)N=2 | i | 9% | -13%
O=[N+]([O-])c1ccc(CSc2ccc(-c3ccccn3)nn2)cc1 | 2.0% | 53% | 5%
CC(=O)N1CCN(c2cc(N3CCc4ccccc4C3)c(F)cc2[N+](=O)[O-])CC1 | i | 41% | 38%
COc1ccc(-c2nc3cc(NC(=O)Cc4ccc(OC)c(OC)c4)ccc3o2)cc1 | 3.1% | 35% | 50%
Oc1ccc(C=Nc2cccc3ncccc23)c(O)c1 | 8.2% | 1% | -3%
COc1ccc(N2C3=C(CC4=C2CC(C)(C)CC4=O)C(=O)CC(C)(C)C3)cc1 | ? | 33% | 3%
CN[C@H](C)[C@H](O)c1ccccc1 | 0.3% | 2% | 3%
O=c1[nH]c(=O)n(C2C[C@H](O)[C@@H](CO)O2)cc1C(F)(F)F (stereo partly specified) | 6.8% | 1% | -2%
CC[N+](C)(CC)CCC[n+]1c(-c2ccccc2)c2cc(N)ccc2c2ccc(N)cc21 | · | 72% | ?
COc1ccc2c(c1)-c1c(ssc1=S)C(C)(C)N2C(=O)CSC1=NCCS1 | 3.0% | 2% | 1%
Cc1c(N2C(=O)/C(=C3\C(=O)N(CC(=O)O)c4ccccc43)SC2=S)c(=O)n(-c2ccccc2)n1C | 2.0% | 4% | -4%
C#CCOCCOCCOCCNc1nc(N2CCN(C(=O)[C@H](Cc3ccc(O)cc3)n3cc([C@@H](N)C(C)CC)nn3)CC2)nc(N2CCN(C(=O)[C@H](Cc3cc4ccccc4[nH]3)n3cc([C@@H](N)C(C)CC)nn3)CC2)n1 (stereo partly specified) | 0.9% | 75% | ? | inhibitors of VEEV 10K pilot screen=0.7
CC1CCN(c2nc(NCc3ccco3)nc(N)c2[N+](=O)[O-])CC1 | 0.5% | 11% | 0%
Cc1cc(C)c2c(c1)-c1c(ssc1=S)C(C)(C)N2C(=O)CN1C(=O)c2ccccc2C1=O | 3.4% | 26% | -1%
NC(=S)N=Nc1ccc(NN=C(N)N)cc1 | 2.9% | ? | 17µM*
CC1=NOC(=O)/C1=C/c1ccc(O)cc1 | 1.1% | 6% | 2% | inhibitors of VEEV 10K pilot screen=2.2

Reprinted from the part before: 2 entries, followed by the next part.
SMILES | inhibitors of VEEV | M. tuberculosis | M. tuberculosis HTS | others
NC(=S)N=Nc1ccc(NN=C(N)N)cc1 | 2.9% | ? | 17µM*
CC1=NOC(=O)/C1=C/c1ccc(O)cc1 | 1.1% | 6% | 2% | inhibitors of VEEV 10K pilot screen=2.2
CC(=O)[C@H]1CC[C@H]2[C@@H]3CCC4=CC(=O)CC[C@]4(C)[C@H]3CC[C@]12C | 4.6% | 9%&28% | 28%&-2%
Nc1ccc2c(c1)Cc1ccccc1-2 | i | 56% | >100µM*
Cc1c(CCN)ccc2c1[nH]c1ccccc12 | 0.9% | 24% | 9%
CC(C)(C)c1nnc(N/N=C/c2cc(Br)ccc2O)n(N)c1=O | 9.9% | 69% | 0% | inhibitors of VEEV 10K pilot screen=7.6
O=C(O)/C=C/c1cnc[nH]1 | 0.3% | -3% | -3%
O=C(NC(C(=O)c1ccccc1)n1c(=O)cc[nH]c1=S)c1ccccc1 (stereo unspecified) | i | 11% | 4%
O=C1/C(=C/c2cccs2)Sc2ccccc21 | 0.7% | 75% | -5%
COc1cnc(-c2ccccn2)nc1N(C)c1ccccc1 | i | 70% | ?
CC1=NN(Cc2ccccc2)C(=O)/C1=C\c1ccc(N(C)C)cc1 | 1.8% | 15% | -2%
COc1cc2nc(N3CCN(C(=O)c4ccco4)CC3)nc(N)c2cc1OC | 23% | -13%&-7% | 1%&-8%
O=C(O)Cn1c(=O)c2c3c(sc2n(Cc2ccccc2F)c1=O)CCCC3 | 0.8% | 15% | -11%

15 entries out of the list, sorted by length of the SMILES, lowest first.
SMILES | inhibitors of VEEV | M. tuberculosis | M. tuberculosis HTS | others
CN1CCC[C@H]1c1cccnc1 | 0.1%&2.1% | -1%&-7% | -2%&-1%
O=C(O)/C=C/c1cnc[nH]1 | 0.3% | -3% | -3%
CC1=NOC(=O)/C1=C/c1ccc(O)cc1 | 1.1% | 6% | 2% | inhibitors of VEEV 10K pilot screen=2.2
Oc1ccc(C=Nc2cccc3ncccc23)c(O)c1 | 8.2% | 1% | -3%
O=C(N/N=C/c1c[nH]c2ccccc12)c1ccc(Cl)cc1 | 0.5% | -1% | 1%
CC1=NN(Cc2ccccc2)C(=O)/C1=C\c1ccc(N(C)C)cc1 | 1.8% | 15% | -2%
CC1CCN(c2nc(NCc3ccco3)nc(N)c2[N+](=O)[O-])CC1 | 0.5% | 11% | 0%
Cc1ccccc1Nc1c([N+](=O)[O-])ccc2c1=NC1(CCCCC1)N=2 | i | 9% | -13%
COc1ccc2c(c1)-c1c(ssc1=S)C(C)(C)N2C(=O)CSC1=NCCS1 | 3.0% | 2% | 1%
O=c1[nH]c(=O)n(C2C[C@H](O)[C@@H](CO)O2)cc1C(F)(F)F (stereo partly specified) | 6.8% | 1% | -2%
COc1ccc(-c2nc3cc(NC(=O)Cc4ccc(OC)c(OC)c4)ccc3o2)cc1 | 3.1% | 35% | 50%
CCn1cc(C(=O)N[C@H](C(=O)O)C(C)C)c(=O)c2cc3c(cc21)OCO3 | 0.2% | -6% | -1%
COc1ccc(N2C3=C(CC4=C2CC(C)(C)CC4=O)C(=O)CC(C)(C)C3)cc1 | ? | 33% | 3%
CC[N+](C)(CC)CCC[n+]1c(-c2ccccc2)c2cc(N)ccc2c2ccc(N)cc21 | · | 72% | ?
Cc1cc(C)c2c(c1)-c1c(ssc1=S)C(C)(C)N2C(=O)CN1C(=O)c2ccccc2C1=O | 3.4% | 26% | -1%

An excerpt; the hit share may differ from the screen's.
